# Source: PubChem BioAssay (National Center for Advancing Translational Sciences (NCATS))
# Vaccinia mCherry = qHTS for Stage-Specific Inhibitors of Vaccinia Orthopoxvirus: mCherry Reporter Primary qHTS. Vaccinia virus mCherry reporter infection, fluorescence; about a quarter of the inactives have no number. Potency, µM (highest dose often 36.5 µM), inactives show top-dose activity change, negative = inhibition, hits mostly inhibitors. hit rate 0.63% among 310,000; active = well fitted inhibition curve with a large enough effect; inconclusive = small, poorly fitted or top-dose-only effect; inactive = no such curve, though single readings can be large or run the other way; tested in A549 cells; also: nearly all actives have a fitted effect of over 35% in size; inactives centre near -10
# VACV Venus inh = qHTS for Stage-Specific Inhibitors of Vaccinia Orthopoxvirus: Venus Reporter Primary qHTS; Potency, µM (doses to about 36.5 µM), inactives show at the highest dose activity change, negative = inhibition, usual class: inhibitors; AID 720580, 2013; Vaccinia virus Venus reporter expression, fluorescence; hit rate 0.46% among 330,000; active means well fitted inhibition curve with a large enough effect; inconclusive means small, poorly fitted or top-dose-only effect; inactive means no such curve, though single readings can be large or run the other way; tested in A549 cells; also: nearly all actives have a fitted effect of over 30% in size; inactives centre near -10
# The depositor's hits bear a star; i = inactive; ? = inconclusive; · = no result given; [ ] = dose if it differs, or a comment. % is scaled to controls: 0 for no effect and ±100 for the full control effect; potency is read from the fitted curve at half-maximal effect.
item	structure	VACV Venus inh	Vaccinia mCherry
1	O=c1c2ccccc2nc(-c2ccccc2)n1Cc1ccc(Cl)cc1	-12%	-13%
2	COc1ccc(-c2csc(C(C#N)=C(O)CSc3nccn3C)n2)cc1OC	11%	-5%
3	CCC(C)(NC(=O)c1ccccn1)C(=O)NC1CCCCC1 (configuration not stated)	-17%	·
4	CC(CN1CCN(C)CC1)OC(=O)c1cccc(Cl)c1 (configuration not stated)	-6%	0%
5	Cc1ccc(C)c(CN2C(=O)c3ccccc3S(=O)c3ccc(C(=O)NCCc4ccc(Cl)cc4)cc32)c1 (configuration not stated)	-16%	-19%
6	CC(C)CC(=O)NC1(C(F)(F)F)C(=O)Nc2c1c(=O)[nH]c(=O)n2-c1ccccc1 (configuration not stated)	13%	-4%
7	OCC1(CCOc2ccccc2)CCN(Cc2ccc3cccc(F)c3n2)CC1	-12%	-25%
8	COc1ccc(C)cc1NC(=O)CSc1nc2ccccc2nc1N1CCCC1	2%	29%
9	CN1CCN(C2CC(=O)N(c3ccc4c(c3)OCCO4)C2=O)CC1 (configuration not stated)	-18%	-20%
10	CN1C(=O)CC(N2CCN(C(=O)c3ccccc3)CC2)C1=O (configuration not stated)	-19%	i
11	O=C(N/N=C/c1ccccn1)NC12CC3CC(CC(C3)C1)C2	?	-5%
12	CC(=O)Nc1ccc(C(=O)OCC(=O)NC2CCCCCC2)cc1	-5%	i
13	CCS(=O)(=O)c1ccc(O)c(NC(=O)Nc2ccccc2)c1	-18%	?
14	COC(=O)c1cc(CNC(=O)c2cnsn2)cc(NC(=O)c2ccccc2OC)c1	-10%	-22%
15	C[C@H](O)[C@@H]1CN2CCc3c([nH]c4ccccc34)[C@@H]2C[C@@H]1N(C)C(=O)Nc1ccc(Br)cc1	-24%	6%
16	N#Cc1nc(N2CCCC2)nc(N(c2ccccc2)c2ccccc2)n1	-19%	i
17	COc1cc2c(cc1OC)C(C1(O)CCCCC1)NCC2 (configuration not stated)	-11%	i
18	NC(=O)NC(c1ccccc1)c1cccc2ccccc12 (configuration not stated)	-10%	i
19	COc1ccc(CC(N)c2csc(NC(=O)NC(c3ccccc3)c3ccccc3)n2)cc1 (configuration not stated)	-20%	-26%
20	CCCCC/C=C\C/C=C\C/C=C\C/C=C\CCCCCC(=O)O	-16%[3.33 µM]	-29%[3.33 µM]
21	COc1ccc(NC(=O)c2ccc3c(c2)OCCO3)cc1OC	-6%	-6%
22	COc1cc(C(=O)Nc2cccc(OCc3cc(=O)n4cc(C)sc4n3)c2)cc(OC)c1OC	1%	14%
23	CCN(CC(=O)N1CCOCC1)S(=O)(=O)c1cc(Cl)ccc1Cl	-12%	i
24	COc1cc(NS(=O)(=O)c2ccc(N/C=C\C(=O)c3ccc(C)cc3)cc2)nc(OC)n1	-11%	-19%

# Five entries drawn at random from those above:
item	structure	VACV Venus inh	Vaccinia mCherry
6	CC(C)CC(=O)NC1(C(F)(F)F)C(=O)Nc2c1c(=O)[nH]c(=O)n2-c1ccccc1 (configuration not stated)	13%	-4%
4	CC(CN1CCN(C)CC1)OC(=O)c1cccc(Cl)c1 (configuration not stated)	-6%	0%
1	O=c1c2ccccc2nc(-c2ccccc2)n1Cc1ccc(Cl)cc1	-12%	-13%
22	COc1cc(C(=O)Nc2cccc(OCc3cc(=O)n4cc(C)sc4n3)c2)cc(OC)c1OC	1%	14%
14	COC(=O)c1cc(CNC(=O)c2cnsn2)cc(NC(=O)c2ccccc2OC)c1	-10%	-22%

# The listing continues:
item	structure	VACV Venus inh	Vaccinia mCherry
25	COc1ccc(S(=O)(=O)Nc2cc(-c3cn4ccccc4n3)ccc2C)cc1	-23%	-5%
26	Cc1cc(C(=O)Nc2ccccc2Cl)c2ccccc2n1	-10%	-1%
27	CCn1c(SCC(=O)Nc2ccccc2)nnc1-c1cccs1	-20%	-18%
28	CCOCCCNC(=O)Cn1cnc2sc(C)c(S(=O)(=O)N3CCN(c4ncccn4)CC3)c2c1=O	-18%	-21%
29	CCN(CC)C(=O)[C@H]1CC(CC(=O)NCCCn2ccnc2)C(=O)N2CCc3c([nH]c4ccc(OC)cc34)[C@]12C (some centres not stated)	-9%	-8%
30	S=C(NCc1ccccc1)N1CCc2ccccc2C1	-17%	-29%
31	CN(C(=O)Oc1ccc(C(C)(C)C)cc1)c1ccccc1	2%	-7%
32	Cc1ccc(S(=O)(=O)Nc2ccc3c(c2)n(C)c(=O)n3C)c(C)c1	-7%	-3%
33	O=C(O)CCCC(=O)N1CCN(c2ncccn2)CC1	-2%	-7%
34	CCCN(CC(=O)Nc1ccccc1OC)C(=O)c1cccc(S(=O)(=O)Nc2ccc(OC)cc2)c1	-19%	?
35	COc1cc2c3c(n(C)c(=O)c2cc1OC)-c1cc2c(cc1C3=O)OCO2	19%	-5%
36	COc1ccc(C(=O)Nc2cccc(C(=O)OCc3cc(=O)n4c5c(sc4n3)CCCC5)c2)cc1	-14%	-17%
37	Cc1c(Cl)cccc1-n1ncc(C(=O)N2CCOCC2)c1C1CCN(C(=O)OC(C)(C)C)CC1	-1%	6%
38	CC(C)c1ccc(OCC(=O)N2CCN(CCc3ccccn3)CC2)cc1	9%	-7%
39	CCOC(=O)NC(Nc1ccc(S(N)(=O)=O)cc1)(C(=O)OCC)C(F)(F)F (configuration not stated)	-26%	·
40	O=C(c1ccc(S(=O)(=O)Nc2ccccc2)cc1)N1CCC1	1%	-15%
41	Nc1[nH]ncc1S(=O)(=O)c1ccccc1	-18%	-1%
42	Clc1ccc(C(c2nnnn2C2CCCCC2)N(Cc2cccnc2)Cc2ccco2)cc1 (configuration not stated)	-9%	·
43	NC(CSCc1cccc(Br)c1)C(=O)O (configuration not stated)	-9%	i
44	Nc1nc(NCCO)nc(NCC2CCCO2)c1[N+](=O)[O-] (configuration not stated)	-11%	-16%
45	Cn1c(N/N=C2\CCCc3ccccc32)nc2c1c(=O)n(Cc1ccc(F)cc1)c(=O)n2C	-13%	i
46	C(=C\c1ccco1)/c1nc2ccccc2[nH]1	?	-23%
47	O=C1CN2CCC1C/C2=C\c1ccnc2c(Cl)cccc12 (configuration not stated)	-12%	i
48	Cc1cc(C)c(C#N)c(SCC(O)COc2ccc(Br)cc2)n1 (configuration not stated)	-7%	i

# From compound 37 up to 43, as listed above:
item	structure	VACV Venus inh	Vaccinia mCherry
37	Cc1c(Cl)cccc1-n1ncc(C(=O)N2CCOCC2)c1C1CCN(C(=O)OC(C)(C)C)CC1	-1%	6%
38	CC(C)c1ccc(OCC(=O)N2CCN(CCc3ccccn3)CC2)cc1	9%	-7%
39	CCOC(=O)NC(Nc1ccc(S(N)(=O)=O)cc1)(C(=O)OCC)C(F)(F)F (configuration not stated)	-26%	·
40	O=C(c1ccc(S(=O)(=O)Nc2ccccc2)cc1)N1CCC1	1%	-15%
41	Nc1[nH]ncc1S(=O)(=O)c1ccccc1	-18%	-1%
42	Clc1ccc(C(c2nnnn2C2CCCCC2)N(Cc2cccnc2)Cc2ccco2)cc1 (configuration not stated)	-9%	·
43	NC(CSCc1cccc(Br)c1)C(=O)O (configuration not stated)	-9%	i

# Other entries.
item	structure	VACV Venus inh	Vaccinia mCherry
49	CCOC(=O)c1ccccc1NC(=O)CCOc1ccccc1	-5%	-10%
50	N#CCc1cnc2ccccc2n1	12%	-5%
51	CCCc1cc(N2CCN(c3cc(Cl)ccc3C)CC2)n2cnnc2n1	-15%	-15%
52	O=C(O)CCC/C=C\C[C@@H]1C(/C=C/[C@@H](O)COc2cccc(C(F)(F)F)c2)[C@@H](O)C[C@@H]1O (some centres not stated)	-13%[3.33 µM]	i[3.33 µM]
53	CCc1ccc(C2=CC(c3cccc(Br)c3)n3nnnc3N2)cc1 (configuration not stated)	-12%	-20%
54	CCCn1c(=N)c(C(=O)NCC2CCCO2)cc2c(=O)n3cc(C)ccc3nc21 (configuration not stated)	-12%	-5%
55	COc1ccc(OC)c(CCNC(=O)Cc2ccc(NC3=NC4CS(=O)(=O)CC4S3)cc2)c1 (configuration not stated)	-9%	i
56	CCc1cccc(C)c1NC(=O)COC(=O)Cn1c(C)csc1=O	-7%	0%
57	COc1cccc(C(=O)NCCCNC(=O)c2cccc(OC)c2)c1	-11%	-20%
58	C/C(N)=C(/C#N)C(=O)COC(=O)c1cc(-c2ccc(C)cc2)nc2ccccc12	-4%	-14%
59	O=S(=O)(Nc1ccc2c(c1)oc1ccccc12)N1CCCC1	-21%	-28%
60	COc1ccc(CC(=O)Nc2ccc(-c3nnc(-c4ccccc4)o3)cc2)cc1OC	-6%	i
61	CC(Oc1ccc2c(-c3ccccc3)cc(=O)oc2c1)C(=O)NCc1ccccn1 (configuration not stated)	-3%	-8%
62	Cc1ccc(C)c(N(C)S(=O)(=O)c2ccc3[nH]cc(C(=O)NCCN4CCOCC4)c(=O)c3c2)c1	-15%	-13%
63	CCOC(=O)N1CCC(N(CCN(C)C)C(=S)Nc2cc(Cl)ccc2C)CC1	-12%	-13%
64	CSC1=NC(C(Cl)(Cl)Cl)N=C(c2ccc(C)cc2)N1 (configuration not stated)	?	-26%
65	COc1ccc(OC2C(=O)N(Cc3ccc(F)cc3)C2c2ccc(OC)c(OC)c2)cc1 (configuration not stated)	-10%	-3%
66	N/C(=N\OC(=O)c1ccco1)c1ccc(Cl)cc1	-9%	i
67	O=C(CSc1ccc(-c2cccnc2)nn1)N1CCCCCC1	-1%	i
68	CC(C)CC(=O)Nc1cccc(-c2cn3cccnc3n2)c1	-1%	-16%
69	O=C(CC1SCCNC1=O)Nc1cc(Cl)cc(Cl)c1 (configuration not stated)	-9%	·
70	O=C(Nc1nc2cc3c(cc2s1)OCO3)C1CC1	-7%	-12%
71	O=C(Nc1ccc(Cl)cn1)c1ccc(-c2ccc(Cl)c(Cl)c2)o1	10%	·
72	CCOC(=O)N1CCN(C(=O)c2ccc3ccccc3c2)CC1	-18%	-16%
73	COc1ccccc1NC(=O)CSc1nnc(Cn2cnc3ccccc32)o1	2%	-5%
74	Nc1ccccc1CNc1nc(NCCO)nc2c1ncn2CCN1CCOCC1	-4%	-14%
75	COc1ccc(C(=O)N(c2c(C)cccc2C)C(COC(C)=O)COC(C)=O)cc1	4%	10%
76	COC(=O)Cn1ncn2cccc2c1=O	-9%	-11%
77	COc1ccccc1-c1noc(CCC(=O)Nc2ccccc2Cl)n1	-9%	i
78	COC(=O)Nc1ccc(S(=O)(=O)Nc2cc(C(F)(F)F)c[nH]c2=O)cc1	-1%	-4%
79	COc1ccc(CN2C(=O)c3ccccc3C(/C=N\OCc3ccc(F)cc3)C2=O)cc1 (configuration not stated)	6%	·
80	COc1ccc2c(c1)OC[C@H]1[C@H]2N2C(=O)c3cc(Cl)ccc3NC(=O)[C@@]2(C)[C@H]1c1ccccc1	?	-21%
81	O=S(=O)(Cc1ccccc1)N1CCCCC1	-7%	·
82	COCCn1c(SCC(=O)NC2CCCCC2C)nc2ccccc2c1=O (configuration not stated)	0%	-1%
83	Cc1onc(-c2c(F)cccc2Cl)c1C(=O)Nc1cccc(S(=O)(=O)NC2=NCCC2)c1	-18%	i
84	CC1=C(C(=O)Nc2cc(C)ccn2)C(c2cnn(C)c2)C2=C(CC(c3ccccc3)CC2=O)N1 (configuration not stated)	-8%	-2%
85	CCCn1c(NC(=O)c2ccc(F)cc2)nc2ccccc21	-6%	5%
86	COc1cc(/C=N/NC(=O)CN2CCCCC2)ccc1OCc1ccc(Br)cc1	-11%	-9%
87	CCOC(=O)/C(C#N)=C1/C(=O)N(Cc2ccccc2)c2ccccc21	-2%	?
88	Cc1c2cnn(-c3ccccc3)c(=O)c2c(C)n1CC(=O)NCc1ccc(Cl)cc1	-14%	-23%
89	COc1ccccc1Cn1c(SCC#N)nc2cc(C(=O)N3CCC4(CC3)OCCO4)ccc2c1=O	-22%	i
90	C#C[C@]1(O)CC[C@H]2[C@@H]3[C@H](O)C[C@H]4C[C@@H](O)CC[C@]4(C)[C@H]3CC[C@@]21C	-16%	-5%
91	CCOC(=O)c1[nH]cnc1C(=O)NC1CCCCC1	-16%	-26%
92	O=C(NNC(=O)c1cc(Br)ccc1Cl)c1csc(N2CCOCC2)n1	-7%	-9%
93	O=C(N/N=C/c1c(O)ccc2ccccc12)c1cccc(C(F)(F)F)c1	?	3.5µM*
94	COc1ccc(N2CCN(C(=O)CCNS(=O)(=O)c3ccc(C)cc3)CC2)cc1	-17%	?
95	CC(=O)N1CCC(=NNc2ccnc3cc(Cl)ccc23)CC1	3%	-18%
96	CSCC[C@H](NC(=O)c1ccc(Cl)c([N+](=O)[O-])c1)c1nc2ccccc2[nH]1	-8%	-18%
97	CCOC(=O)c1ccccc1NC(=O)CN1C(=O)NC(C)(CCc2ccccc2)C1=O (configuration not stated)	-24%	-3%
98	CCCCCC(=O)Nc1cccc(C2=NOC3(C2)C[C@@H](C(N)=O)N(C(=O)CC(c2ccccc2)c2ccccc2)C3)c1 (some centres not stated)	13µM*	-37%
99	O=C(OCc1cccc(F)c1)c1cc2ccccc2cc1O	-5%	-27%
100	O=C(CCC(=O)N1CCSc2ccccc21)Nc1cccc(F)c1	-10%	-1%
101	CCCOc1ccc(-c2nn(-c3ccccc3)cc2/C=C2\SC(N)=NC2=O)cc1	-13%	-9%
102	COc1ccc(-c2nc(CS(=O)CC(=O)NC3CCCCC3C)c(C)o2)cc1 (configuration not stated)	-13%	i
103	COc1ccccc1/C=N/NC(=O)c1nnn(-c2nonc2N)c1-c1ccccc1	-4%	-5%
104	COc1ccc(CC2(CCc3ccncc3)C(=O)NC(=O)NC2=O)cc1OC	-11%	-5%
